A1 inh: caspase 3/7 activation in MEF A1-2A-BIM cells, primary screen, A1 inhibitor project, cell-based, luminescence, HTS; Caspase-Glo 3/7 luminescence, 3 h; percent of clofoctol response, vehicle zero; caspase activation, % (test concentration not listed); hit rate 0.066% among 330,000;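 active = over half of replicate activation scores above 10%, or exactly half above 10 with the replicate mean above 10; inconclusive = replicate mean below 10 yet half the replicates above 10; inactive = over half of replicates below 10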;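 also: wells of about 30 µL received 50 nL stock; many hits fall short of the cut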
Calb FLC: C. albicans growth inhibition with fluconazole, primary screen, CaCi-2 strain, Alamar Blue fluorescence; C. albicans CaCi-2 (fluconazole-resistant clinical isolate) + fluconazole, 48 h; growth inhibition, % (test concentration not listed); hit rate 0.57% among 300,000; AID 1979, 2009;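 active = most replicates above 75%; inconclusive = exactly half above 75%; inactive = most below 75%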;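 also: all wells also contain fluconazole at 8 µg/ml as a sub-toxic cotreatment; 0% = median of DMSO wells and 100% = median of geldanamycin control wells; wells of about 8 µL received 7.5 nL stock; the first replicate is given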
Vif TR-FRET: inhibitors of Vif binding to APOBEC3G peptide, primary screen, biochemical, TR-FRET, GST-Vif 1-94, biotin-A3G peptide, dose response retest (AID 1117319); TR-FRET GST-Vif / biotin-A3G peptide binding; higher % means a stronger effect; test concentration not given here; strong numbers were not always called active; one-dose inhibition, %; IC50 in µM for titrated hits; hit rate 0.57% among 260,000;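 active = above the screen mean plus three standard deviations and confirmed in dose response; inconclusive = results disagree or hit not tested in dose response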;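 also: Vif residues 1-94 fused to GST binding biotinylated APOBEC3G peptide 110-148; 0% = full assay without inhibitor and 100% = GST in place of GST-Vif; retest series ran down from 100 µM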
Beta apoptosis: inhibitors of cytokine-induced beta cell apoptosis, primary screen, luminescence | INS-1E cytokine-induced death, ATP luminescence, 48 h; percent of positive-control rescue, neutral wells zero | protection from apoptosis, % (test concentration not listed) | hit rate 0.8% among 300,000;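 active = all replicates at 75% or more, or half of them and the mean; inconclusive = half reach 75% but not the mean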;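 also: 0% = cytokine-treated negative control wells and 100% = positive control rescue; higher means more ATP so stronger rescue from cytokine killing; wells of about 40 µL received 100 nL stock; the first replicate is given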
RanGTP-Imp inh: inhibitors of RanGTP-importin-beta interaction, primary screen, biochemical, FRET, CFP-Ran, YFP-importin-beta, homogeneous. Ran GTPase (GTP-bound) - importin-beta complex. cell-free CFP-Ran/YFP-importin-beta FRET ratio. inhibition, % (no concentration beside the values). hit rate 1.1% among 300,000;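 active = most replicates above 15%; inconclusive = exactly half above 15%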;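 also: 0% = DMSO wells and 100% = Ran loaded with GDP instead of GTP; wells of about 40 µL received 100 nL stock; the first replicate is given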
LANA-H2A inh: blockers of LANA interaction with H2A/H2B – biochemical, FP readout, HTS, primary screen; cell-free LANA-H2A/H2B peptide, fluorescence polarization; inhibition, % (no concentration beside the values); hit rate 0.6% among 320,000; in the data active = inhibition mostly above about 10%, no sharp cut-off; inactive = mostly below about 6.7%;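 also: stock transfer was 7.5 nL into about 10 µL; 0% = median of vehicle wells and 100% = median of positive control wells; one replicate is shown; the record names a cut of 25% in any replicate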
AF4-AF9 inh: inhibitors of AF4 peptide binding to AF9, primary screen, biochemical, AlphaScreen, biotin-AF4 peptide, FLAG-AF9, single point; inhibition, % at 10 µM; Protein AF-9 (Homo sapiens), P42568; hit rate 0.47% among 350,000; AID 651704, 2012;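 active = every replicate reaching a set inhibition limit, whatever the replicate mean, cut at about 25% in these data; inconclusive = mean inhibition reaches that limit but some replicates miss it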;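 also: 0% = plate neutral control median and 100% = total signal loss; the record names both 10 and 1 µM as test concentration; the first replicate is given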
Target sequence (P42568 whole entry, looked up): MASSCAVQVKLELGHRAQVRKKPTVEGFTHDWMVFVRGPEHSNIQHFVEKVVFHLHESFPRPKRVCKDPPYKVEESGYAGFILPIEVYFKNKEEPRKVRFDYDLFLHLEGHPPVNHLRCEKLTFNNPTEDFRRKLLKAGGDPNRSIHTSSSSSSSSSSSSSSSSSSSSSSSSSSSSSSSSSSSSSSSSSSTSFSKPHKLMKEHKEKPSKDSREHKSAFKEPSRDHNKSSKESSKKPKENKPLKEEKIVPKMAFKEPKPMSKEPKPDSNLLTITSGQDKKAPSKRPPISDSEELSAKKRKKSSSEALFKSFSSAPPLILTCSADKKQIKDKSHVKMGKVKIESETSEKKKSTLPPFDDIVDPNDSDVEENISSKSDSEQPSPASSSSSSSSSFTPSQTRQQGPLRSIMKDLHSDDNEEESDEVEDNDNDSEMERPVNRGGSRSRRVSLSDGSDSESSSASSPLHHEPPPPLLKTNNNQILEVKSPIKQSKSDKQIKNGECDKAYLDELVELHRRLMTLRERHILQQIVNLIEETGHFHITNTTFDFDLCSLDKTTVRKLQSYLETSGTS
T cruzi inh: inhibitors of intracellular T. cruzi growth, primary screen, luminescence, NIH3T3 host cells | inhibition, % (concentration not given with the values) | hit rate 1.4% among 300,000 | T. cruzi beta-gal in NIH3T3, 90 h | AID 1885, 2009;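 active = mean inhibition across valid replicates above about 55%, limit read from the data; inconclusive = mean below that limit but half or more replicates reach it; inactive = mean below it, under half of replicates reach it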;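 also: signal also drops with host cell toxicity which is not excluded here; 0% = plate median of DMSO wells and 100% = zero luminescence signal; higher percent means less beta-gal luminescence so fewer parasites; stock transfer was 50 nL into about 50 µL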
An asterisk follows results filed as active; u = inconclusive; x = no result given; & = joins results of further samples.

SMILES	Vif TR-FRET	RanGTP-Imp inh	T cruzi inh	Calb FLC	A1 inh	AF4-AF9 inh	Beta apoptosis	LANA-H2A inh
COc1ccc(OC)c(C(c2nnnn2CCc2ccccc2)N2CCC(C(N)=O)CC2)c1 (stereo not given)	-4%	0.5	0	1	-0.1	x	-3	-1.3
N#CCC(=O)N/N=C/c1cn(Cc2ccccc2C#N)c2ccccc12	-14%	-0.3	-17	19	0.0	-2.6	-1	0.2
Cc1ccc2ccccc2c1NC(=O)c1ccco1	2%	1.2	4	5	1.8	-2.1	4	3.4
Clc1ccc(Nc2nc(-c3cccnc3)cs2)cc1	3%	1.4	28	-7	-1.1	x	-6	-0.4
O=C(NCC1CCCO1)C(C(=O)c1ccccc1)n1ccccc1=O (stereo not given)	-3%	12	-30	-2	0.7	x	x	-0.1
COc1ccc(-c2c(C)c3cc(O)ccc3oc2=O)cc1OC	x	2.8	1	11	0.9	-0.6	0	1.4
C(=N\N1CCN(Cc2cccc3ccccc23)CC1)/c1ccco1	3%	1.8	8	u	-0.2	x	-5	-2.9
Oc1ccc(N=Nc2nccs2)c(O)c1	2%	1.3	48	86*	-7.8	x	98*	-5.9
O=C(Nc1cccc(S(=O)(=O)N2CCCCC2)c1)c1ccc(OCC2CCCO2)cc1 (stereo not given)	-5%	-0.5	-9	u	0.2	-3.1	0	1.0
Cc1ccc(NC(=O)c2cc3c(CO)cnc(C)c3oc2=Nc2cccc(C(N)=O)c2)cc1	-1%	-0.5	3	-3	0.2	0.8	3	-0.6
CC(C)Oc1ccc(C(=O)Nc2ccccc2N2CCOCC2)cc1	25%	-2.5	8	9	0.7	-0.5	-11	-2.6
CC1CCCC(NC(=O)Cn2c(Cl)nc3c2c(=O)n(C)c(=O)n3C)C1C (stereo not given)	-10%	x	x	x	2.1	3.5	3	-5.7
COc1ccccc1CNC(=O)C1CCN(S(=O)(=O)N2CC(C)CC(C)C2)CC1 (stereo not given)	-2%	0.2	16	8	-0.9	9.4	-1	2.6
O=C(N/N=C/c1sc(N2CCCCC2)nc1-c1cccs1)c1cccnc1	8%	u	65*	94*	-1.0	26*	30	-8.3
COc1ccc(N(CC(=O)Nc2c(C)n(C)n(-c3ccccc3)c2=O)S(=O)(=O)c2ccccc2)cc1OC	8%	2.7	1	26	0.1	x	1	6.1
Cc1ccccc1-c1noc(CCC(=O)NCCc2ccccc2)n1	-8%	-3.3	0	1	0.1	-1.1	-8	-1.3
O=C(Cn1c(=O)oc2cc(S(=O)(=O)N3CCCC3)ccc21)N1CCc2ccccc2C1	1%	-0.2	3	-5	0.2	-7.4	2	3.8
COc1cc(CN2CCC(C(=O)NC3CCCC3)CC2)ccc1O	2%&-1%	u	-21	5	0.4	x	-9	0.1
C#CCOC(=O)Nc1ccc(=O)n(Cc2c(Cl)cccc2Cl)c1	13%	-0.8	12	27	-0.4	x	-2	2.4
Cc1cc(C)c(S(=O)(=O)NCCn2c(C)cc3ccccc32)c(C)c1	-69%	7.2	1	0	0.2	2.0	-5	8.4

Overlap with the part before: two entries, then new ones.
SMILES	Vif TR-FRET	RanGTP-Imp inh	T cruzi inh	Calb FLC	A1 inh	AF4-AF9 inh	Beta apoptosis	LANA-H2A inh
C#CCOC(=O)Nc1ccc(=O)n(Cc2c(Cl)cccc2Cl)c1	13%	-0.8	12	27	-0.4	x	-2	2.4
Cc1cc(C)c(S(=O)(=O)NCCn2c(C)cc3ccccc32)c(C)c1	-69%	7.2	1	0	0.2	2.0	-5	8.4
COc1ccc(OC)c(NC2c3ccccc3C(=O)N2c2cccnc2)c1 (stereo not given)	3%	4.8	-1	0	1.3	7.9	3	-1.1
COC(=O)c1ccccc1NS(=O)(=O)c1c(C)noc1C	x	3.1	-7	15	0.9	-0.6	2	3.5
CCN1CCN(CCCNC(=O)CNC(=O)c2nn(-c3ccc(OC)cc3OC)c(=O)c3ccccc23)CC1	x	-4.6	1	5	-0.1	-4.4	-7	1.2
O=C(Nc1ccc(OC(F)F)cc1)Nc1cccc(C(F)(F)F)c1	-2%	-3.8	42	-18	-0.4	x	78*	1.7
CCOC(=O)Cc1[nH]nc2c1C(c1cccc(OC)c1OC)C(C#N)=C(N)O2 (stereo not given)	12%	-1.0	-15	-4	0.8	x	1	-2.4
Cc1cn2c(nc(=O)c3cccnc32)s1	0%	-0.6	-5	2	-0.2	x	-1	-2.6
COc1ccc(CCNC(=O)c2cc(-c3ccccc3O)n[nH]2)cc1OC	15%	1.9	13	37	-1.3	x	-1	-3.0
Cc1nn(C(=O)c2nn(C)cc2[N+](=O)[O-])c(C)c1Br	2%	1.6	1	-5	0.2	-2.0	-2	1.5
CC(C)(C)c1ccc(NC(=O)COc2ccc(-n3ccnc3)cc2)cc1	1%	-1.4	59*	-18	-0.5	x	2	-0.3
COc1cc(/C=C/C(=O)OCC(=O)c2c(N)n(C)c(=O)n(C)c2=O)ccc1OCC#N	4%	2.0	-5	3	0.4	4.6	-7	-0.3
FC(F)Oc1ccccc1/C=N/Nc1nc2ccccc2o1	x	8.2	5	4	0.5	1.0	6	5.6
Cc1cccnc1NC(=O)CCc1c[nH]c2ccccc12	x	1.3	11	-2	-0.2	-0.2	x	1.8
OC1CNCc2cc3c(cc21)OCCO3 (stereo not given)	1%	u	-11	-26	0.8	x	-2	0.1
O=C(CSc1nnc(-c2ccncc2)n1CC1CCCO1)Nc1cccc(O)c1 (stereo not given)	-5%	3.5	4	2	2.1	x	-2	1.0
Cc1ccc(C(=O)Nc2ccc(F)cc2)o1	-1%	u	-10	u	-3.9	-1.3	22	2.6
Cc1ccc(S(=O)(=O)N(C)CCCC(=O)N2CCOCC2)cc1	6%	-0.1	-18	-2	1.9	x	2	-0.3
Cc1cc(C)n(Cc2ccc(NC(=O)c3ccc(COc4ccccc4Br)cc3)cc2)n1	12%	-1.5	60*	37	-0.1	x	78*	7.1
COc1ccc(NS(=O)(=O)c2cc(NC(=O)c3ccc(=O)[nH]n3)ccc2C)cc1	-12%	x	x	x	0.5	1.2	6	1.1
CCOc1ccc(NC(=O)CSc2nnc(C(C)C)n2CC)cc1	3%	-0.2	3	-4	-0.5	x	-2	1.7
Cc1ccc(NC(=O)CC2=NC(=O)C(CC(=O)Nc3ccccc3C)S2)cc1 (stereo not given)	8%	-3.4	14	-18	0.8	-2.2	-1	0.6

Brought forward from above: three entries, followed by the next part.
SMILES	Vif TR-FRET	RanGTP-Imp inh	T cruzi inh	Calb FLC	A1 inh	AF4-AF9 inh	Beta apoptosis	LANA-H2A inh
COc1ccc(NS(=O)(=O)c2cc(NC(=O)c3ccc(=O)[nH]n3)ccc2C)cc1	-12%	x	x	x	0.5	1.2	6	1.1
CCOc1ccc(NC(=O)CSc2nnc(C(C)C)n2CC)cc1	3%	-0.2	3	-4	-0.5	x	-2	1.7
Cc1ccc(NC(=O)CC2=NC(=O)C(CC(=O)Nc3ccccc3C)S2)cc1 (stereo not given)	8%	-3.4	14	-18	0.8	-2.2	-1	0.6
COc1ccccc1C1/C(=C(\O)c2ccc3c(c2)OCCO3)C(=O)C(=O)N1Cc1cccnc1 (stereo not given)	x	3.3	-1	1	0.9	-2.7	1	-2.2
CCOc1ccc(C(=O)NCC2CCCN2S(=O)(=O)c2cccs2)cc1 (stereo not given)	-2%	2.9	8	4	0.0	-2.8	0	-0.5
O=C(Nc1ccccn1)C1(c2cccs2)CCOCC1	x	u	-11	1	0.2	x	-4	1.5
CC1Cc2cc(S(=O)(=O)N3CCC(C(=O)N4CCCCC4)CC3)ccc2N1C(=O)C1CC1 (stereo not given)	x	2.2	0	-4	-0.1	-2.6	-5	-0.4
COC(=O)c1cc(=O)n2c(-c3ccccc3)csc2n1	2%	-0.1	-1	-4	0.0	x	-5	4.9
COc1ccc(OC(=O)COc2cc(C)ccc2C)cc1	1%	0.4	-6	49	1.3	0.0	2	-4.4
CCC(C)(C(=O)NC1CCCCC1)N(Cc1cccs1)C(=O)Cc1cccs1 (stereo not given)	24%	-7.7	-17	-1	0.3	x	7	4.0
CC(=O)c1ccc(NC(=O)CN2C(=O)NC(C)(C3CCCCC3)C2=O)cc1 (stereo not given)	-5%	x	x	x	-0.1	-1.0	-3	1.0
O=C(Cc1ccc(F)cc1)N/N=C/c1ccccn1	0%	-1.1	-3	6	0.3	0.7	0	-1.6
CN(C)c1ccc(-c2noc(C3CCN(S(=O)(=O)c4ccc(C(=O)O)cc4)CC3)n2)cc1	-15%	2.3	-19	-15	-0.2	x	-1	-0.9
COc1ccc(C(=O)Nc2ccncc2)cc1S(=O)(=O)N1CCOCC1	30%	x	x	x	0.7	1.1	-3	3.2
COC(C/C=C\[C@@H](O)[C@H](C)OCc1ccccc1)OC	x	-1.4	-17	-7	1.1	-3.0	-8	-4.5
O=S(=O)(NCCN1CCOCC1)c1ccc2c(c1)OCCO2	5%	4.5	-2	2	-0.1	-2.1	-3	-4.6
COc1cccc(OC(=O)CSc2nnc(-c3ccccc3Br)o2)c1	-4%	u	9	7	-0.9	x	0	1.3
Cc1cc(Cl)ccc1C(=O)C1CCCN(C(=O)c2cccnc2C)C1 (stereo not given)	2%	0.8	3	-4	0.5	0.6	3	3.9
CC1C(=O)N2CCCc3cc(S(=O)(=O)N4CCC(C(N)=O)CC4)cc1c32 (stereo not given)	x	1.3	-18	-5	-1.4	-4.2	-1	-1.0
CC(=O)Nc1ccc(N2CCN(c3ccc(F)cc3)CC2)cc1	4%	-3.0	-15	-15	-0.3	-2.4	0	-0.6
Cc1nonc1NC(=O)N1CCCC1	u	-0.5	0	1	0.8	x	5	-3.1
O=C(CS(=O)(=O)Cc1ccccc1)Nc1ccc(S(=O)(=O)N2CCCCCC2)cc1	0%	u	13	-3	0.1	x	1	0.0
Cc1ccccc1-n1cnc2cc(NCc3cccs3)ccc21	5%	22*	12	22	-0.3	x	-9	-1.7
Cc1cccc(NC(=O)c2oc3ccc(S(=O)(=O)N4CCOCC4)cc3c2C)c1C	-5%	0.7	-14	-1	-0.5	x	5	-2.1
Cc1ccc(CN2CCC(N3CC(C)OC(C)C3)CC2)cc1 (stereo not given)	0%	-6.0	6	3	0.4	-1.4	1	4.1
Cc1ccc(S(=O)(=O)Nc2ccc(NC(=O)Nc3ccc(F)cc3F)cc2)cc1	x	-2.4	19	7	-0.4	x	9	-5.8

Source: PubChem
